Screening results from PubChem.
A1 inh = inhibitors of the anti-apoptotic protein A1, read as caspase activation; caspase activation, % (no concentration beside the values); MEF A1-2A-BIM cells, Caspase-Glo 3/7 luminescence, 3 h; percent of clofoctol response, vehicle zero; actives 0.066% (n = 330,000);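 active = over half of replicate activation scores above 10%, or exactly half above 10 with the replicate mean above 10; inconclusive = replicate mean below 10 yet half the replicates above 10; inactive = over half of replicates below 10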;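 also: wells of about 30 µL received 50 nL stock; many hits fall short of the cut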
Calb FLC = C. albicans growth modulation with fluconazole; AID 1979; growth inhibition, % (concentration not given with the values); actives 0.57% (n = 300,000); C. albicans CaCi-2 (fluconazole-resistant clinical isolate) + fluconazole, Alamar Blue growth, 48 h;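 active = most replicates above 75%; inconclusive = exactly half above 75%; inactive = most below 75%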;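 also: all wells also contain fluconazole at 8 µg/ml as a sub-toxic cotreatment; 0% = median of DMSO wells and 100% = median of geldanamycin control wells; wells of about 8 µL received 7.5 nL stock; the first replicate is given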
T cruzi inh = T. cruzi replication inhibition; inhibition, % (no concentration beside the values); actives 1.4% (n = 300,000); T. cruzi beta-gal in NIH3T3, luminescence, 90 h;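 active = mean inhibition across valid replicates above about 55%, limit read from the data; inconclusive = mean below that limit but half or more replicates reach it; inactive = mean below it, under half of replicates reach it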;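 also: signal also drops with host cell toxicity which is not excluded here; 0% = plate median of DMSO wells and 100% = zero luminescence signal; higher percent means less beta-gal luminescence so fewer parasites; stock transfer was 50 nL into about 50 µL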
rRNA inh HTS = inhibitors of bacterial rRNA selective over humanized ribosomes | E. coli WT GFP vs humanized-ribosome RFP mutants, fluorescence, 24 h; active compounds read low; DMSO median 0, no signal -100 | GFP signal change (wild-type ribosome), % (no concentration beside the values) | actives 1.6% (n = 350,000);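 active = significant combined selectivity score with lowered wild-type GFP, culture density cut under 30%, mutant RFP and density less affected; inactive = any of these conditions unmet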; also: one replicate is shown; some compounds called inactive have numbers as strong as hits
RanGTP-Imp inh = inhibitors of RanGTP-importin-beta interaction, primary screen, biochemical, FRET, CFP-Ran, YFP-importin-beta, homogeneous. AID 2216. cell-free CFP-Ran/YFP-importin-beta FRET ratio. inhibition, % (test concentration not listed). actives 1.1% (n = 300,000);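 active = most replicates above 15%; inconclusive = exactly half above 15%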;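 also: 0% = DMSO wells and 100% = Ran loaded with GDP instead of GTP; wells of about 40 µL received 100 nL stock; the first replicate is given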
AF4-AF9 inh = inhibitors of human MLL-AF4/AF9 interaction; actives 0.47% (n = 350,000); inhibition, % at 10 µM; P42568; AlphaScreen, biotin-AF4 peptide binding to FLAG-AF9;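 active = every replicate reaching a set inhibition limit, whatever the replicate mean, cut at about 25% in these data; inconclusive = mean inhibition reaches that limit but some replicates miss it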;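 also: 0% = plate neutral control median and 100% = total signal loss; the record names both 10 and 1 µM as test concentration; the first replicate is given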
Target sequence (P42568 whole entry, looked up): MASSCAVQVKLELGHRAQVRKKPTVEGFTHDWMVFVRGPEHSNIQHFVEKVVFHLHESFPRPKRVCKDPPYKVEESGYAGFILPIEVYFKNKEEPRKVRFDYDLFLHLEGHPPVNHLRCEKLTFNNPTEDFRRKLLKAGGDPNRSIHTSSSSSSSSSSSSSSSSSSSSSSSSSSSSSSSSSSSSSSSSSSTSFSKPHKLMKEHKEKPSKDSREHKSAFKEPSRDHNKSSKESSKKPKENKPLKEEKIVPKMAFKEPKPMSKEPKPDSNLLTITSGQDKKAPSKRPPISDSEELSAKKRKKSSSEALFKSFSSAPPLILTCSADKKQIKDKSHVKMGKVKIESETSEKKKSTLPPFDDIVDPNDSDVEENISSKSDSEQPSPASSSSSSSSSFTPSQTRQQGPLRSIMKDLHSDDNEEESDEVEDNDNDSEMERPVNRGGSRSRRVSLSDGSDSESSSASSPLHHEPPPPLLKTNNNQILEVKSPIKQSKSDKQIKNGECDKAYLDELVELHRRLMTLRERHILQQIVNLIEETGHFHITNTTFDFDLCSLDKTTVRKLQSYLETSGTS
Beta cell apopt = beta cell apoptosis inhibition. INS-1E cytokine-induced death, ATP luminescence, 48 h; percent of positive-control rescue, neutral wells zero. protection from apoptosis, % (concentration not given with the values). actives 0.8% (n = 300,000);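 active = all replicates at 75% or more, or half of them and the mean; inconclusive = half reach 75% but not the mean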;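 also: 0% = cytokine-treated negative control wells and 100% = positive control rescue; higher means more ATP so stronger rescue from cytokine killing; wells of about 40 µL received 100 nL stock; the first replicate is given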
Vif A3G = inhibitors of Vif binding to APOBEC3G peptide, primary screen, biochemical, TR-FRET, GST-Vif 1-94, biotin-A3G peptide, dose response retest (AID 1117319); TR-FRET GST-Vif / biotin-A3G peptide binding; higher % means a stronger effect; test concentration not given here; strong numbers were not always called active; inhibition, %; hits with a dose series show IC50 in µM; actives 0.57% (n = 260,000);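 active = above the screen mean plus three standard deviations and confirmed in dose response; inconclusive = results disagree or hit not tested in dose response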;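 also: Vif residues 1-94 fused to GST binding biotinylated APOBEC3G peptide 110-148; 0% = full assay without inhibitor and 100% = GST in place of GST-Vif; retest series ran down from 100 µM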
rRNA inh HTS OD600 = also measured in rRNA inh HTS; calls as there; OD600 change, %; measured here: OD600 growth;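 optical density of the mix in the first replicate; 0 = DMSO median and -100 = no signal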
rRNA inh HTS RFP = also measured in rRNA inh HTS; calls as there; RFP signal change, %; measured here: RFP humanized mutant strains;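 first replicate; 0 = DMSO median and -100 = no signal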
The depositor's hits bear a star; ? = inconclusive; · = not tested or not shown; & = joins results of further samples.

SMILES | A1 inh | Calb FLC | T cruzi inh | rRNA inh HTS | rRNA inh HTS OD600 | rRNA inh HTS RFP | RanGTP-Imp inh | AF4-AF9 inh | Beta cell apopt | Vif A3G
CCC(C)(C)NC(=O)c1ccc(S(=O)(=O)N2CCCCCC2)cc1 | 0.7 | 3 | -12 | 1 | -5 | -1.6 | -3.0 | 0.3 | 3 | ?
COc1cccc(NC(=O)CN(C)C(=O)c2c(C)nn(Cc3ccc(C)cc3)c2Cl)c1 | 0.3 | 1 | 5 | -1 | -6 | 2.1 | -0.3 | -0.3 | 6 | -2%
Cc1ccc2c(c1)C1C=CCC1C(C(=O)O)N2 (stereo unspecified) | 0.2 | -5 | -8 | · | · | · | 1.8 | · | 4 | 0.95µM*
Cn1nc(-c2ccc(Cl)cc2)c2cc(C(=O)NCCCN3CCCC3)sc21 | 0.4 | 4 | 43 | 7 | 14 | 9.1 | 5.2 | 2.3 | 17 | -8%
CN(C)c1ccc(C(=S)N2CCCC2)cc1Br | -1.3 | 7 | -21 | 3 | 8 | -1.8 | -4.5 | 3.8 | -6 | -8%
COc1ccccc1NC(=O)NCC1(N(C)C)CCCCC1 | 0.2 | 6 | -15 | 2 | 5 | -3.5 | -0.2 | 3.6 | -4 | ·
O=C1/C(=C2/NCCN2C2CC(=O)N(c3ccccc3)C2=O)CC/C1=C\c1ccccc1 (stereo unspecified) | 0.4 | -3 | -3 | 16 | 18 | 4.7 | 4.4 | 1.1 | 2 | -4%
CC(Cl)C(=O)Nc1c2c(nn1-c1ccccc1)CSC2 (stereo unspecified) | 0.6 | -4 | -10 | 8 | 13 | 0.8 | 2.8 | 8.0 | 4 | ·
O=C(CN1CCOCC1)N1CCCc2ccccc21 | -0.3 | 19 | -7 | 6 | 2 | -0.6 | -2.4 | -0.9 | -9 | 4%
C[n+]1c(/C=C/c2ccc3c(c2)OCO3)ccc2ccccc21 | 1.5 | -28 | 33 | 45 | 9 | -5.1 | -3.2 | 0.1 | -3 | 8%
Cc1ccc2c(c1)N(C(=O)CCC(=O)N1CCN(c3cccc(C)c3C)CC1)CCO2 | 0.0 | -9 | 28 | -9 | -65 | -1.6 | 1.4 | -0.1 | 5 | ·
O=C(CN1C(=O)c2ccccc2C1=O)Nc1ccccc1C(=O)NC1CCCCC1 | 0.0 | 13 | 1 | · | · | · | -1.9 | · | -4 | -10%
Cc1csc(=O)n1CCC(=O)OCC(=O)Nc1ncc(Cl)cc1Cl | 0.8 | -9 | -8 | 6 | 16 | 2.0 | -3.4 | -1.8 | · | 11%
Cc1ccc(S(=O)(=O)N2CCN(CC(O)c3ccccc3)CC2)cc1 (stereo unspecified) | 0.1 | -7 | 10 | -9 | 4 | 1.8 | -1.0 | -0.8 | 2 | ?
Cc1ccn(CCC(=O)NC2CC(C)(C)Cc3c2cnn3-c2ccccc2C)n1 (stereo unspecified) | -0.8 | -7 | 29 | 3 | -1 | -2.8 | 0.8 | -1.6 | -4 | ·
C=C(C)CC1(NC(C)c2ccccc2)CCCCC1 (stereo unspecified) | 0.3 | -10 | -5 | 10 | 6 | 3.1 | 3.7 | 2.0 | -3 | ·
Cc1oc2ccc(OCc3ccccc3Cl)cc2c1C(=O)O | -2.7 | 26 | -5 | 0 | -2 | -1.1 | 0.4 | -0.6 | -2 | 6%
O=C(NCCC1=CCCCC1)c1ccc(CN2CCOCC2)cc1 | 0.2 | 25 | -7 | · | · | · | ? | · | 8 | 21%
O=C(CN(C(=O)c1csnn1)c1ccc(F)c(Cl)c1)NC1CCCCC1 | -0.7 | 28 | 1 | 4 | 5 | -2.3 | 9.6 | -0.8 | 6 | ·
O=C(NCCS(=O)(=O)NCc1ccc(Cl)cc1)c1ccccc1 | 0.0 | 9 | -9 | -3 | -3 | 1.7 | 5.4 | -6.0 | 0 | 5%
CS(=O)(=O)N(CC(=O)N1CCCC1)c1ccc(OCc2ccccc2)cc1 | 0.3 | -9 | 4 | 2 | -2 | -2.4 | 5.2 | -39 | -10 | 12%
Cc1ccc(C)c(C(=O)CC2(O)C(=O)Nc3ccccc32)c1 (stereo unspecified) | 0.8 | 4 | -5 | · | · | · | -0.2 | · | -2 | -2%
COC(=O)C1=C(C)NC(=O)/C1=C\c1cc(C)n(-c2ccccc2F)c1C | 0.4 | -16 | 2 | -1 | 0 | 12 | -1.9 | 6.4 | -3 | ·
Cc1cc(=O)oc2cc(OC(C)C(=O)Nc3ccc(C(N)=O)cc3)ccc12 (stereo unspecified) | 0.1 | · | · | · | · | · | · | 0.6 | -1 | -3%
COc1ccc(NS(=O)(=O)c2cccc(C(=O)N3CCCC(C)C3)c2)cc1 (stereo unspecified) | -0.1 | -14 | 8 | -8 | -4 | 1.3 | 2.1 | -18 | 7 | 0%
CCn1c(N2CCN(S(=O)(=O)c3ccc(F)cc3)CC2)nc2ccccc21 | -0.8 | 1 | 32 | -17 | -16 | 3.7 | 2.4 | 1.3 | 17 | ·
Cc1cc(N2C(=O)C(O)=C(C(=O)c3cc4ccccc4o3)C2c2ccc(Cl)cc2)no1 (stereo unspecified) | 0.1 | 2 | -5 | -24* | -11* | 0.8* | 3.9 | -2.6 | -1 | ·
CN(C(=O)Nc1ccc(Cl)cc1Cl)[C@H]1c2cc(Br)ccc2OC[C@H]1CO | 0.2 | 0 | 25 | · | · | · | -2.0 | · | 4 | 1%
Cn1c(CCC(=O)O)nc2cc(S(=O)(=O)N3CCCC3)ccc21 | 0.1 | · | · | 0 | 4 | -2.7 | · | -2.3 | -5 | -3%
CC1CCCC(C)N1/N=C/c1ccc(N(C)C)cc1 (stereo unspecified) | 0.3 | -12 | -3 | 9 | 13 | 2.0 | 4.0 | 2.5 | -6 | 0%
COc1ccc(-c2nc3c(c(SCC(=O)N4CCOCC4)n2)COC(C)(C)C3)cc1 | 0.1 | -4 | -2 | · | · | · | -2.9 | · | -6 | 1%
NS(=O)(=O)c1cccc(NC(=O)c2cccc(Oc3ccccc3)c2)c1 | -1.3 | -9 | -4 | -23 | -36 | -6.8 | 7.5 | 2.6 | -6 | ·
O=C(NCC(=O)N1CCOCC1)c1ccc(Cl)c(Cl)c1 | 0.4 | · | · | -1 | 7 | -5.5 | · | -5.7 | -14 | 4%
COc1ccc(CNC(=O)[C@H](Cc2ccccc2)NC(=O)C2CCNCC2)cc1 | 0.3 | -5 | 7 | 2 | 5 | -1.3 | -0.7 | 1.1 | -3 | 3%
O=C(NC(=S)Nc1ccccc1)c1cccs1 | 0.0 | 2 | -14 | -3 | 0 | -0.3 | 6.8 | 1.0 | -6 | ·
CCOc1ccc(Nc2nc(CC(=O)OC)cc(=O)[nH]2)cc1 | 0.4 | 37 | -6 | · | · | · | 2.0 | · | -1 | ?
COc1ccc(-c2nnc(SCC(N)=O)n2N)cc1 | -0.8 | 12 | 3 | · | · | · | 4.9 | · | -8 | -3%
COc1ccc(-c2nc(NC(=O)c3ccc(OCC(=O)Nc4ccc(F)cc4)c(OC)c3)sc2C)cc1 | -0.6 | 0 | -7 | · | · | · | 0.8 | · | -4 | -3%
COc1ccc(NC(=O)Cn2c(C)cc(=O)c3ccccc32)cc1 | 0.6 | 11 | -44 | -25 | -27 | -4.0 | 0.1 | -2.3 | 1 | 16%
Cc1ccc2c(c1)NC(=O)C(CC(=O)NCCCN1CCc3ccccc3C1)O2 (stereo unspecified) | 0.5 | 4 | -12 | 3 | 7 | 0.0 | 5.9 | -0.7 | -2 | 5%
Brc1ccc(Oc2nsnc2N2CCOCC2)cc1 | -0.8 | 37 | 2 | · | · | · | -0.3 | · | -3 | 17%
O=C(CSc1nc2ncccc2[nH]1)NCCc1ccccc1 | 0.0 | -20 | 0 | 0 | -3 | -0.1 | -1.7 | 3.9 | -1 | -4%
CCN(C[C@H]1N[C@@](Cc2ccccc2)(C(=O)OC)[C@H]2C(=O)N(Cc3ccccc3)C(=O)[C@@H]12)S(=O)(=O)c1ccc(-c2ccccc2)cc1 | -0.8 | · | · | -6 | 19 | -1.1 | · | -1.1 | 5 | -5%
O=C(NC(=S)NCc1cccnc1)c1cccc2ccccc12 | 0.5 | 5 | 63* | 17 | 18 | 4.8 | 2.0 | -1.1 | -2 | -4%
CCOc1ccc(NC(=O)C2CCCN(S(=O)(=O)c3c(C)n[nH]c3C)C2)cc1 (stereo unspecified) | 0.5 | -7 | 6 | 1 | 5 | 0.8 | 1.8 | -4.0 | -4 | >100µM*
CCO/C=C1\SC(=S)N(c2ccc(Cl)cc2)C1=O | 0.4 | 9 | -17 | · | · | · | -1.3 | 3.0 | 2 | 9%
CSc1nnc(NC(=O)c2nc(S(=O)(=O)Cc3ccc(C)cc3)ncc2Cl)s1 | 1.9 | -1 | -1 | 3 | -1 | 0.5 | -7.4 | -3.0 | -28 | ·
CCOC(=O)N1CCC(NC(=O)CNS(=O)(=O)c2ccc(Br)s2)CC1 | -0.8 | 3 | -7 | 4 | -4 | -0.7 | 0.8 | 1.3 | -5 | 17%&2%
CSc1nc2c(c(=O)[nH]c(=O)n2C)n1CCCc1ccccc1 | -0.9 | -1 | 6 | -2 | 6 | -6.8 | -0.6 | 0.3 | 0 | -13%
COc1cccc(-c2cccc(NC(=O)C3CCN(Cc4ccc(C)o4)CC3)c2)c1 | 0.2 | -1 | 8 | 18 | 12 | 2.2 | 1.6 | 6.4 | -8 | ·
COc1ccc(OC)c(-n2c(=S)[nH]c3cc(C(=O)N4CCCCC4)ccc3c2=O)c1 | 0.1 | -14 | 12 | 4 | -8 | -2.0 | 0.1 | 0.3 | 0 | -7%
CCC(=O)Nc1nnc(/C=C/c2ccc(OC)cc2)s1 | -1.4 | 6 | -2 | -4 | -2 | -1.0 | 1.0 | 7.0 | -3 | 16%
COCCNC(=O)c1ccc(C(=O)C(=O)c2ccccc2)cc1 | 1.0 | 14 | -16 | · | · | · | 1.5 | · | -11 | -8%
c1ccc2c3n(nc2c1)CCCO3 | 1.1 | · | · | 22 | 19 | -4.5 | · | -1.0 | -15 | ·
CC1CCC(NC(=O)c2ccc(N3CCCC3=O)cc2)CC1 (stereo unspecified) | -0.3 | -10 | -5 | · | · | · | 0.0 | · | -1 | -3%
CCC(=O)N1CCNC(=O)C1CC(=O)Nc1ccc(C)c(Cl)c1 (stereo unspecified) | 0.4 | 2 | -19 | · | · | · | 5.0 | · | · | 4%

These rows are one share of the data; count on the stated rates, not on these rows.
